From PubChem
H5N1 antiviral: MDCK cell protection from H5N1 avian flu | cytopathic effect, luminescence, 72 h; stronger effect = higher value; no value below 0 was filed and about half of the inactive calls have no number; reference of the scale not given here | inhibition, % at 50 µM | 96,000 tested, 0.07% active | AID 740; in the data active means inhibition above about 25%
The depositor's hits bear a star; i = inactive. Some of the compounds tested; the hit share may differ from the screen's.

Compound,H5N1 antiviral
CCNc1cc2n(c(=O)n1)CCc1cc(OC)c(OC)cc1-2,1.1
O=C(Nc1ccc(Cl)c(Cl)c1)Oc1ccc(NC(=O)c2ccco2)cc1,i
CC(=O)C1=C(C)NC(=O)NC1c1cc(Br)ccc1OCC(N)=O (configuration not stated),0.8
COc1ccc2nc(N3CCCC(O)C3)c(C#N)cc2c1 (configuration not stated),0.6
O=S(=O)(NCc1ccccn1)c1ccccc1,0.8
O=C(COc1ccc(F)cc1)Nc1nnc(-c2ccncc2)s1,1.5
CCn1ncc(Br)c1C(=O)Nc1ccc(C(=O)OC(C)C)cc1,0.7
Cc1cc(C)cc(NC(=O)CCN2CC(C)OC(C)C2)c1 (configuration not stated),0.4
COc1ccc(N2CCN(C3CC(=O)N(C)C3=O)CC2)cc1 (configuration not stated),0.6
COC(=O)c1ccc(CSc2nncn2C)cc1,0.4
C=CCSc1nnc(NC(=O)CSc2nc(CCC)cc(=O)[nH]2)s1,0.8
COC(=O)C(C)N(C(=O)c1ccc(Cl)cc1)c1c(C)cccc1C (configuration not stated),0.1
COc1cc(Cc2cnc(N)nc2N)cc(OC)c1OC,0.3
COC(=O)c1ccc(NC(=O)CCN2CCN(c3ccccc3)CC2)cc1,0.0
CCOc1ccc(NC(=O)c2ccc(OC)cc2)cc1,i
CCOC(=O)c1c(NC(=O)C2c3ccccc3Oc3ccccc32)sc(C(=O)N(CC)CC)c1C,2.1
CCOC(=O)COc1c(OC)cc(Cl)cc1C1Nc2ccccc2C(=O)N1c1ccccc1 (configuration not stated),i
COC(=O)c1ccccc1N(Cc1ccccc1)S(C)(=O)=O,0.2
COCCCNC(=O)c1ccc(CNS(=O)(=O)c2ccc(NC(C)=O)cc2)cc1,i
c1ccc(-c2onc3cc4c(cc23)OCCO4)cc1,i
COc1cccc(/C=N/Nc2nc(N3CCCC3)nc(N3CCCC3)n2)c1O,0.1
NS(=O)(=O)c1ccc(CNC(=O)C2CCCCC2)cc1,i
Nc1c(S(=O)(=O)c2cccs2)c2nc3ccccc3nc2n1Cc1ccc2c(c1)OCO2,2.7
c1ccc(COc2ccc(OCCCN3CCCCC3)cc2)cc1,i
CCN(CC(=O)NC(C)C)Cc1nc2sc3c(c2c(=O)[nH]1)CCC3,0.4
CCOC(=O)N1CCN(S(=O)(=O)c2c(C)nn(C)c2C)CC1,i
COC(=O)c1sccc1-c1ccc(C(=O)Nc2cccc(Cl)c2)o1,i
COc1ccc(CC(=O)n2c(CC#N)nc3ccccc32)cc1OC,0.0
Cc1ccc(C)c(N2CCN(C(=O)CCCn3c(=S)[nH]c4cc5c(cc4c3=O)OCO5)CC2)c1,i
Cn1c(Cn2c(=O)sc3ccccc32)nnc1SCc1ccccn1,4.2

The closing six entries of the section before are carried over, then new ones follow.
Compound,H5N1 antiviral
CCN(CC(=O)NC(C)C)Cc1nc2sc3c(c2c(=O)[nH]1)CCC3,0.4
CCOC(=O)N1CCN(S(=O)(=O)c2c(C)nn(C)c2C)CC1,i
COC(=O)c1sccc1-c1ccc(C(=O)Nc2cccc(Cl)c2)o1,i
COc1ccc(CC(=O)n2c(CC#N)nc3ccccc32)cc1OC,0.0
Cc1ccc(C)c(N2CCN(C(=O)CCCn3c(=S)[nH]c4cc5c(cc4c3=O)OCO5)CC2)c1,i
Cn1c(Cn2c(=O)sc3ccccc32)nnc1SCc1ccccn1,4.2
Cc1nc2ccc(S(=O)(=O)NC(C(=O)Nc3nc4ccc(Cl)cc4s3)C(C)C)cc2s1 (configuration not stated),i
O=C(Nc1ccc(Cl)cc1)c1cccs1,i
Cc1cc(N2CCN(C3CCCCC3)CC2)nc2cccc(O)c12,0.5
O=C(CCS(=O)(=O)c1ccc(Br)cc1)N1CCN(c2ccc(Cl)cc2)CC1,1.6
Cc1cc(C(=O)CSc2nnc(N)s2)c(C)n1-c1c(C)n(C)n(-c2ccccc2)c1=O,1.8
Cc1ccc(S(=O)(=O)NCCCN2CCOCC2)c(C)c1,i
COc1cccc(NS(=O)(=O)c2ccc3[nH]cc(C(=O)NCCC(C)C)c(=O)c3c2)c1,1.2
COc1ccc(-c2coc3cc(OC)cc(O)c3c2=O)cc1,0.5
Cn1nnnc1SCC(=O)Nc1c(Cl)cccc1Cl,i
O=P(CCC(F)(F)F)(CCC(F)(F)F)CCC(F)(F)F,i
COc1ccccc1CN(CC(=O)NCc1ccco1)C(=O)CNS(=O)(=O)c1ccc(C)cc1,2.0
Cc1ccc(-c2csc(NC(=O)c3cccc(N4C(=O)CCC4=O)c3)n2)o1,3.1
O=C(NC1CCCCCC1)C1CCN(S(=O)(=O)c2cccc3cccnc23)CC1,i
Cc1ccc(C)c(Cn2c(=O)c3c(nc4n3CCN4Cc3ccco3)n(C)c2=O)c1,1.9
CC(C)c1ccc(OCc2nc(-c3ccccn3)no2)c(Br)c1,0.3
NC(=O)Nn1c(CCC(=O)O)ccc1-c1ccc(Br)cc1,i
COc1ccc(-c2cc(C(F)(F)F)n3nc(N)nc3n2)cc1,i
CSc1nc2ccc(S(=O)(=O)N3CCCCC3)cc2s1,i
CCC(CC)C(=O)N(c1ccc(F)cc1)C1C=CS(=O)(=O)C1 (configuration not stated),i
CCc1cccc2c(C#N)cn(CC(=O)NCc3ccco3)c12,1.3
Cn1c(=O)c2cc(S(=O)(=O)Nc3ccc4c(c3)OCO4)ccc2n(C)c1=O,2.3
COc1ccc(Cl)cc1S(=O)(=O)n1ccnc1C(C)C,0.9
O=C(c1ccc(Br)s1)N1CCN(Cc2ccc3c(c2)OCO3)CC1,2.4
COCCCNC(=O)CN(c1ccc(OC)cc1)S(=O)(=O)c1ccc(NC(C)=O)cc1,0.4
CCCCNC(=O)CC1N=C2c3ccccc3N=C(SCC(=O)Nc3ccccc3OC)N2C1=O (configuration not stated),2.1
COc1ccc(C2C(C#N)=C(N)Oc3cc(C)[nH]c(=O)c32)c(OC)c1OC (configuration not stated),i
Cc1ccc(C(c2nnnn2CC2CCCO2)N2CCN(C(=O)c3ccco3)CC2)cc1 (configuration not stated),1.9
O=C(Nc1ccc2c(c1)OCO2)c1ccc(Cl)nc1,i
O=C(CCNC(=O)c1ccccc1)OCN1C(=O)c2ccccc2C1=O,0.1
O=C1/C(=C/c2cccs2)SC(=S)N1c1ccccc1,i
CCc1c(C(=O)NCc2ccccc2Cl)[nH]c(C)c1C(C)=O,i
Cn1cccc1CNC(=O)Nc1ccc(Cl)cc1,0.2
Brc1[nH]nc2ccccc12,i
COc1ccc(C(=O)CSc2nnc(COc3ccc(C#N)cc3)n2-c2ccccc2)cc1,i
CC[n+]1c(S(=O)(=O)[O-])ccc2ccc(C)cc21,i
COCCCNC(=O)c1ccccc1NS(C)(=O)=O,0.5
Cc1cc(=O)oc2c(CN3CCCCC3)c(O)c(Cl)cc12,i
Cc1cccc(N2CCN(C(=O)c3cc4c(=O)n(C)c5ccccc5c4n3C)CC2)c1C,i
CSc1nc(Oc2ccc3ccccc3c2)c2sccc2n1,2.5
O=C(NCc1ccc(N2CCCC2=O)cc1)c1cnccn1,0.8
CCC(=O)Nc1ccc2oc(-c3ccccc3Br)nc2c1,0.1
CC(=O)c1c(C(C)=O)c(C)n(-c2ccc(C(=O)O)cc2)c1C,2.2
COc1ccc(-c2c3c(=O)n(C)c(=O)n(C)c3cn2Cc2ccccn2)cc1,i
Cc1ccc(Cn2ccc(NC(=O)c3cc4nc5c(c(C(F)(F)F)n4n3)CCc3ccccc3-5)n2)cc1,i
N#CCC(CNc1ncc(C(F)(F)F)cc1Cl)OC(=O)c1ccc(Cl)cc1 (configuration not stated),9.8
Cc1nn(-c2ccccc2)c(C)c1/C=N/NC(=O)c1cc(-c2ccc(Cl)s2)[nH]n1,i
CC(=O)Oc1ccc2c(c1)c(C(C)=O)c(C)n2C,i
CCn1c(-c2cccc(Cl)c2)n[nH]c1=S,2.1
Cc1ccc(-c2c(C)c(-c3ccc(F)cc3)nc(N)c2C#N)o1,i
CCn1c(SCCC(=O)O)nnc1-c1cccnc1,i

Next section.
Compound,H5N1 antiviral
Cc1nc(SCC(=O)Nc2ccc(N3CCOCC3)cc2)nc(C)c1C,0.9
COCCNC(=O)C1CCCN(c2nn3c(=O)cc(C)nc3s2)C1 (configuration not stated),0.3
COc1ccccc1C(=O)Nc1cccc(N(C)S(C)(=O)=O)c1,i
Cc1occc1C(=O)Nc1cccc(Cn2cccn2)c1,i
O=C(CSc1nc(O)cc(=O)n1-c1ccccc1)N1CCCCC1,0.1
COC(=O)C(C)N(C(=O)c1cccc2ccccc12)c1c(C)cccc1C (configuration not stated),1.7
Cc1ccc(-c2nnc(N3CCCCC3)c3ccccc23)cc1S(=O)(=O)NCC1CCCO1 (configuration not stated),i
Cc1ccccc1N(CC(=O)Nc1ccccc1C(=O)O)S(C)(=O)=O,0.4
COc1ccc(CNC(=O)C(c2ccc(C)o2)N(C(=O)c2csnn2)c2ccc(C(C)C)cc2)cc1 (configuration not stated),0.9
CC(C)c1nc(SCc2c(F)cccc2Cl)c2c(=O)n(C)c(=O)n(C)c2n1,0.1
Cc1cc2c(c(=O)n1C)C(Cc1ccccc1)C(C#N)=C(N)O2 (configuration not stated),1.6
COC(=O)c1ccc(C)c(NS(=O)(=O)c2ccc3c(c2)OCCO3)c1,i
CCCC(O)(CCC)C(=O)NN1CCCCC1,i
Cn1c(SCC(=O)NCc2ccco2)nnc1-c1ccc(S(=O)(=O)N2CCOCC2)cc1,i
CCOC(=O)N1CCC(c2cc(=O)n3[nH]c(C)c(-c4ccc(F)cc4)c3n2)CC1,i
CCOc1ccc(/C(O)=C2/C(=O)C(=O)N(c3cc(C)on3)C2c2ccc(C(=O)OC)cc2)cc1 (configuration not stated),0.7
COC(=O)C1=CNC=C(C(=O)OC)C1c1ccccc1Cl,i
Cc1ccc(-c2nnc(SCC(=O)Nc3nc4c(s3)CCCC4)n2C)cc1,1.9
N#Cc1c2c(nc(N)c1-c1ccccc1)CCCCC2,0.2
Cc1ccccc1NC(=S)NCc1ccc2c(c1)OCO2,1.6
COc1cc2c(cc1OC)C(c1ccc3c(c1)OCO3)C1=C(CC(C)(C)CC1=O)N2 (configuration not stated),i
COC(=O)c1ccc(N2CCC(c3cc(-c4ccc(OC)cc4)n[nH]3)CC2)c([N+](=O)[O-])c1,i
Cc1ccc(Sc2cnc3ccccc3n2)cc1,0.1
Cc1cc(C)c2c(N=CN(C)C)c(C(=O)N3CCN(c4ncccn4)CC3)sc2n1,1.3
c1ccc(Oc2ccc(-n3cnnn3)cc2)cc1,i
O=C(COc1ccccc1)Nc1nc(-c2ccc(S(=O)(=O)N3CCOCC3)cc2)cs1,i
Cc1ccc(S(=O)(=O)N(Cc2nccn2C)C(C)C)cc1,i
Cc1ccc(CCNC(=O)C2CCC(=O)N2C2CCCC2)cc1 (configuration not stated),0.2
CC(=O)Nc1ccc(S(=O)(=O)N2CCN(C)CC2)cc1,1.0
O=C(NCC(=O)N(c1ccc2c(c1)OCCO2)C(C(=O)NC1CCCC1)c1ccco1)c1ccco1 (configuration not stated),i
CCOc1ccccc1NC(=O)CCCc1nc2ccccc2c(=O)[nH]1,2.3
COC(=O)c1ccc(NC(=O)CSc2nnc(-c3ccncc3)n2N)cc1,0.4
Cn1c(=O)c2ncn(CC(=O)NCCOc3ccccc3)c2n(C)c1=O,0.4
Cc1ccc(CSc2nnc3c(n2)OC2(Nc4ccccc4-3)C(=O)Nc3ccc(F)cc32)cc1 (configuration not stated),1.2
COc1ccc2c(c1)OC(O)(C(F)(F)C(F)F)CC2=O (configuration not stated),0.2
CCOC(=O)CNC(=O)c1cn(C)c(=O)c2cc(OC)c(OC)cc12,i
O=C(CC(SCCO)c1ccc2c(c1)OCO2)c1ccco1 (configuration not stated),0.3
O=S(=O)(c1ccc(N2CCOCC2)nc1)N1CCOCC1,i
Cc1cc2ccccc2nc1SCC(=O)Nc1nc(-c2ccccc2)cs1,1.3
COc1ccc(CC(=O)OCC(=O)NC(=O)NC(C)C)cc1,i
CCn1c(COc2ccccc2C)nnc1SCC(=O)Nc1ccc2c(c1)OCCO2,i
CC1CCCCN1C(=O)c1cc(F)c(F)cc1Cl (configuration not stated),0.3
CCCc1cc(=O)[nH]c(SCC(=O)N(C)Cc2ccccc2)n1,1.6
CCOC(=O)C1CCN(C(=O)CN(c2ccc(OC)cc2)S(=O)(=O)c2c(C)nn(C)c2C)CC1,0.8
CCC(=O)Nc1nnc(Cc2ccccc2)s1,i
O=C(NCCCN1CCOCC1)c1cc(-c2ccc3c(c2)OCO3)nc2ccccc12,0.0
COc1ccccc1NS(=O)(=O)c1cc(C(=O)NCc2ccco2)ccc1C,0.7
Cc1ccc(C)c(CSc2nnc(CCN)o2)c1,0.4
c1ccc(COc2ccc(CN3CCN(c4ccccn4)CC3)cc2)cc1,i
Cc1ccc2occ(/C=N/O)c(=O)c2c1,i

(cont.)
Compound,H5N1 antiviral
COc1ccc(C(=O)NNC2=NC(C)(C)Cc3cc(C)c(C)cc32)cc1,i
CCCCC(=O)Nc1cc(OC)c(NC(=O)C2CCCCC2)cc1OC,i
C=CCn1c(N)c(C(=O)Nc2ccccc2)c2nc3ccccc3nc21,i
O=C(C1CCC1)N1CCC(c2nc3c(nnn3Cc3c(F)cccc3Cl)c(=O)[nH]2)CC1,1.1
Cc1cc(C(=O)Nc2cccc(C(=O)O)c2)c(C)o1,i

3 of the compounds above, as labelled records:
> Cn1c(=O)c2ncn(CC(=O)NCCOc3ccccc3)c2n(C)c1=O
  H5N1 antiviral: 0.4
> C=CCSc1nnc(NC(=O)CSc2nc(CCC)cc(=O)[nH]2)s1
  H5N1 antiviral: 0.8
> Cc1cc(C)cc(NC(=O)CCN2CC(C)OC(C)C2)c1 (configuration not stated)
  H5N1 antiviral: 0.4
